H5N1 antiviral: antiviral screen in MDCK cells, H5N1 avian flu; cytopathic effect, luminescence, 72 h; hits give high values; no value below 0 was filed and about half of the inactive calls have no number; reference of the scale not given here; AID 740; inhibition, % at 50 µM; actives 0.07% (n = 96,000); in the data active means inhibition above about 25%
* marks the source's active call; other numbers are inactive results; i = inactive. An excerpt. The share of hits here may be higher or lower than overall.

SMILES	H5N1 antiviral
CCOC(=O)c1c(C)n(CCNC(C)=O)c2ccc(OC)cc12	0.1
CC(C(=O)NCc1ccc2c(c1)OCO2)N(c1ccccc1)S(C)(=O)=O (stereo unspecified)	i
Cc1ccc(NC(=O)/C(C#N)=C/c2ccc(C)s2)c(C)c1	i
COCCNC(=O)C1=C(N)C(C(=O)Nc2ccc(C)c(S(=O)(=O)N3CCCCC3)c2)SC1=Nc1ccc(C)cc1C (stereo unspecified)	i
O=C(CCS(=O)(=O)c1cccs1)NC1CCCCCC1	0.9
Cc1ccc(NC(=O)CS(=O)CC(=O)NCCCc2ccccc2)cc1Cl (stereo unspecified)	0.2
ONC(=Nc1ccccc1)c1ccccc1Cl	0.1
O=C(CCC(=O)c1cccs1)Nc1nnc(C2CC2)s1	0.5
Clc1ccc(-c2nnc(NC3=NCCCCC3)o2)cc1	i
CCC(C)n1c(-c2cc(OC)c(OC)c(OC)c2)nc2nc3ccccc3nc21 (stereo unspecified)	i
N#Cc1cc(-c2ccccc2)cnc1Sc1ccccc1	i
O=C(CN1CCSCC1)c1c[nH]c2ccccc12	i
CC1CCC(C(=O)NC(C(=O)NCc2cccnc2)C(C)C)CC1 (stereo unspecified)	i
CC1(C)Cc2noc(N)c2C(C)(C)N1O	i
N#Cc1c(-c2ccc(Cl)cc2)ccn2nc(CCC(=O)O)nc12	i
COc1ccc(-c2cc3nc4n(c(=O)c3s2)CCC4)cc1	0.4
O=C(Nc1nnc(-c2ccccc2)o1)Nc1ccccc1Cl	0.1
O=C(NNc1nc(-c2ccccc2)cs1)c1ccccc1	3.1
COc1ccc(C(=O)NC(Nc2ccccc2)C(Cl)(Cl)Cl)cc1 (stereo unspecified)	3.4
CCOc1cc(N2CCOCC2)c(OCC)cc1NC(=O)Cc1ccc(OC)c(OC)c1	1.3
CCOC(=O)N1CCN(C(=O)CCc2c(C)nc3c(c(C)nn3-c3ccc(C)c(C)c3)c2C)CC1	3.8
COc1ccc(C(=O)c2nc3c(n2O)CCCC3)cc1OC	i
O=S(=O)(Nc1ccc(S(=O)(=O)Nc2ccccc2)cc1)c1ccccc1	2.0
Cc1noc(C(=O)NCc2ccc(F)cc2)c1Cl	0.9
CC(C(=O)NC1CCCC1)N(Cc1ccco1)C(=O)c1snc(C(=O)NC2CCCC2)c1N (stereo unspecified)	0.8
Cc1nc(SCC(=O)N2CC(=O)Nc3ccccc32)c2c(C)c(C)sc2n1	2.1
N#CC1=C2Nc3ccccc3N2C(=O)NC1(c1ccccc1)C(F)(F)F (stereo unspecified)	i
CC1(C)C2CC=C(CN3CCC(O)CC3)C1C2 (stereo unspecified)	6.2
CC(C)(C)c1ccc(Cn2nnc3c(=O)[nH]c(C4CCCN(C(=O)Cc5cccs5)C4)nc32)cc1 (stereo unspecified)	1.1
Cc1ccc(S(=O)(=O)N(C)c2ccc(N)cc2)cc1	i
CCCCN=CC1=C(O)C(C(=O)OC)C(C)(C)CC1=O (stereo unspecified)	0.1
CC1=C(C(=O)Nc2ccc(F)cc2)C(c2cccc(C)c2)n2nc(CCCO)nc2N1 (stereo unspecified)	0.5
CCOC(=O)c1sc2nc(C(C)C)c3c(c2c1N)CC(C)(C)OC3	0.7
CC(=O)NC1CSCC1OC(C)=O (stereo unspecified)	0.2
COc1ccc(CNC(=O)CN(c2cc(C)cc(C)c2)S(=O)(=O)c2c(C)noc2C)cc1	i
Cc1ccc(Oc2ccc3c(c2)C(=O)N(c2ccc(S(=O)(=O)Nc4nccs4)cc2)C3=O)cc1	0.8
CC1CCCC(C)N1Cc1cn2ccccc2n1 (stereo unspecified)	0.6
Cc1ccc2cc(C#N)c(NCc3ccco3)nc2c1	1.3
CC1(N2CCCCC2)CC2(O)C(=[N+]1[O-])CCC/C2=N\O (stereo unspecified)	0.8
Cc1onc(-c2ccccc2)c1C(=O)Nc1ccc(OC(C)C)cc1	0.2
COc1cc(C(=O)NCC(c2ccco2)N2CCCC2)ccc1OCc1c(C)noc1C (stereo unspecified)	i
COc1ccc(C(=O)C(CN2CCOCC2)c2ccccc2)cc1F (stereo unspecified)	0.2
CN(C)S(=O)(=O)c1cccc(C(=O)OCC(=O)Nc2ccccc2OC(F)F)c1	0.1
O=C(C1=C(O)C(=O)N(CC2CCCO2)C1c1cccnc1)c1ccco1 (stereo unspecified)	0.1
Cc1cc(NC(=O)C2CCCN(S(=O)(=O)c3c(C)noc3C)C2)no1 (stereo unspecified)	0.7
Cc1cc(C)c(C#N)c(SCC(=O)NC(C)(C)C)n1	1.1
COc1ccc(OC)c2c1CCC2=O	0.1
Cc1ccccc1OCC(=O)N/N=C/c1cc2ccccc2nc1Cl	1.0
COc1cc(CNC(C)c2ccccc2)c(Br)cc1OCC(N)=O (stereo unspecified)	0.2
CCn1c(=O)cc(OCC(=O)Nc2ccccc2N2CCN(C)CC2)c2ccccc21	i
Cc1ccc(C(=O)Nc2sc3c(c2C(=O)NCc2ccco2)CCCC3)cc1	i
O=c1c2ccccc2[nH]c(=S)n1CCN1CCN(Cc2ccccc2)CC1	0.4
Cc1ccc(C(=O)Nc2ccccc2SCC2CSc3nc4ccccc4c(=O)n32)cc1 (stereo unspecified)	6.3
CSc1ccccc1C(=O)NCc1ccc2c(c1)OCO2	0.3
COC(=O)CCCCCCCCC(=O)Nc1nc2ccccc2s1	i
O=C(Nc1ccc(C(F)(F)F)cc1)C1CCCN1S(=O)(=O)c1cccc2cccnc12 (stereo unspecified)	0.6
N#Cc1nc(-c2ccc(F)cc2)oc1NCCN1CCOCC1	0.3
Cc1nc(NCCO)c2nnn(Cc3ccccc3F)c2n1	0.1
O=C(O)c1ccc(S(=O)(=O)Cc2ccccc2)cc1	0.2
NNC(=O)CNC(c1ccccc1)c1cc(Br)ccc1NC(=O)CCN1CCOCC1 (stereo unspecified)	i
Other compounds
SMILES	H5N1 antiviral
CCCCOc1ccccc1C(=O)NCC(=O)O	2.0
COc1ccc(OC)c(-c2nnc(SCC(=O)NC3CCCCC3)o2)c1	0.1
O=C(/C=C/c1cccs1)c1cc(Cl)ccc1OC(=O)N1CCOCC1	3.3
CCCc1cc(N2CCCC(C(=O)Nc3ccc(OC)cc3OC)C2)n2ncnc2n1 (stereo unspecified)	0.2
Cc1cc(=O)n(-c2ccc3ccccc3n2)[nH]1	i
COc1cccc(-c2nnn(CC(=O)O)n2)c1	0.8
O=C(Nc1ccc(C(=O)N2CCCC2)cc1)c1ccc2c(c1)OCO2	0.2
CCC(C)NC(=O)CCC(=O)Nc1ccc2nc(N3CCOCC3)cc(C)c2c1 (stereo unspecified)	0.7
Cn1c(NCCc2ccccc2)cc(=O)n(C)c1=O	0.2
O=C(CSc1ncccn1)NCCc1ccccc1	0.7
COc1ccc(-c2cc(-c3ccccc3)n3ncnc3n2)cc1	0.7
CCOc1ccc(Br)cc1S(=O)(=O)Nc1ccc(N2CCOCC2)cc1	2.6
C/C(=N/Oc1nc(C)cc(C)n1)c1ccccc1	i
C=C(C)Cn1c(CCNC(=O)C(C)(C)C)nc2ccccc21	0.4
O=C(Nc1nccs1)c1ccccc1N=Cc1ccccc1	0.3
COc1cccc(CC2CC(=O)N(CCc3ccc4c(c3)OCO4)C2=O)c1 (stereo unspecified)	0.8
COc1ccc2c(c1)C(=NO)c1cc(OC)ccc1-2	i
O=C(CCC(=O)NC1CCCCCC1)Nc1nnc(C(F)(F)F)s1	i
COc1ccc(-c2noc(CSc3nnc(Cc4ccccc4)n3-c3ccc(Cl)cc3)n2)cc1	1.0
CC(=O)c1sc(Nc2nc(C)cc(C)n2)nc1C	0.1

Shown bar-delimited: part of the list above
molecule | H5N1 antiviral
NNC(=O)CNC(c1ccccc1)c1cc(Br)ccc1NC(=O)CCN1CCOCC1 (stereo unspecified) | i
CCCCOc1ccccc1C(=O)NCC(=O)O | 2.0
COc1ccc(OC)c(-c2nnc(SCC(=O)NC3CCCCC3)o2)c1 | 0.1
O=C(/C=C/c1cccs1)c1cc(Cl)ccc1OC(=O)N1CCOCC1 | 3.3
CCCc1cc(N2CCCC(C(=O)Nc3ccc(OC)cc3OC)C2)n2ncnc2n1 (stereo unspecified) | 0.2
Cc1cc(=O)n(-c2ccc3ccccc3n2)[nH]1 | i
COc1cccc(-c2nnn(CC(=O)O)n2)c1 | 0.8
O=C(Nc1ccc(C(=O)N2CCCC2)cc1)c1ccc2c(c1)OCO2 | 0.2
CCC(C)NC(=O)CCC(=O)Nc1ccc2nc(N3CCOCC3)cc(C)c2c1 (stereo unspecified) | 0.7
Cn1c(NCCc2ccccc2)cc(=O)n(C)c1=O | 0.2
O=C(CSc1ncccn1)NCCc1ccccc1 | 0.7
COc1ccc(-c2cc(-c3ccccc3)n3ncnc3n2)cc1 | 0.7
CCOc1ccc(Br)cc1S(=O)(=O)Nc1ccc(N2CCOCC2)cc1 | 2.6
C/C(=N/Oc1nc(C)cc(C)n1)c1ccccc1 | i
C=C(C)Cn1c(CCNC(=O)C(C)(C)C)nc2ccccc21 | 0.4
O=C(Nc1nccs1)c1ccccc1N=Cc1ccccc1 | 0.3
COc1cccc(CC2CC(=O)N(CCc3ccc4c(c3)OCO4)C2=O)c1 (stereo unspecified) | 0.8
COc1ccc2c(c1)C(=NO)c1cc(OC)ccc1-2 | i
O=C(CCC(=O)NC1CCCCCC1)Nc1nnc(C(F)(F)F)s1 | i
COc1ccc(-c2noc(CSc3nnc(Cc4ccccc4)n3-c3ccc(Cl)cc3)n2)cc1 | 1.0
CC(=O)c1sc(Nc2nc(C)cc(C)n2)nc1C | 0.1

The list goes on.
SMILES	H5N1 antiviral
Cc1ccc2[nH]c(-c3ccccc3)cc(=O)c2c1	i
COc1ccc(NC(=O)CSc2nc3c(c(=O)n2-c2ccc(F)cc2)SCC3)c(OC)c1	i
Cc1cc(C(=O)CSc2nnc(-c3cccc(F)c3)n2N)c(C)n1Cc1ccc2c(c1)OCO2	i
CCc1ccc(-n2c(Cn3nc(C(F)(F)F)cc3C)n[nH]c2=S)cc1	i
CC1CCN(c2c(NCC3CCC(C(=O)N4CCCCC4)CC3)c(=O)c2=O)CC1 (stereo unspecified)	1.2
CCC1=NC(c2ccccc2OC)N(O)C1(C)C (stereo unspecified)	i
COCc1cc(C)nc2sc(C(=O)N3CCCC3)c(N)c12	0.7
COc1ccc(C(=O)NCc2nnc(SC)n2C2CCCCC2)cc1	0.5
O=C1/C(=N/n2cnnc2)c2ccccc2N1Cc1ccccc1	3.4
COc1ccc(NC(=O)C(C)NS(=O)(=O)c2ccc(NC(C)=O)cc2)cc1Cl (stereo unspecified)	i
CCn1c(=O)n(CC(=O)NCc2ccccc2OC)c(=O)c2ccccc21	1.3
O=C(CN1C(=O)NC2(CCCCCCC2)C1=O)N1CCc2ccccc2C1	i
CC(=O)NNc1cc(=O)c2c(=O)n(C)c(=O)n(C)c2[nH]1	0.4
Cc1cc(Br)cc2c(C(=O)Nc3c(C)n(C)n(-c4ccccc4)c3=O)cc(-c3cccs3)nc12	4.8
COc1cc(NS(=O)(=O)c2ccc(NC(C)=O)cc2)cc(OC)c1	i
S=C1NC(c2ccccc2)=NCN1c1ccc(Cl)cc1	4.9
Cc1ccn2cc(CSc3ccccc3)nc2c1	i
COc1ccc(Cl)cc1NC(=O)C1CCCN(S(=O)(=O)c2cccc3nonc23)C1 (stereo unspecified)	i
CCN1CCN(Cc2c(C)[nH]c3ccc(C(=O)OC)cc3c2=O)CC1	1.1
CCOCCCNC(=O)C(c1ccccc1)N(Cc1ccc2c(c1)OCO2)C(=O)CNC(C)=O (stereo unspecified)	0.6
CCc1ccccc1NC(=O)c1onc(C)c1Cl	0.6
CCN(CC)C(=O)Cn1ncc2c1-c1ccccc1OC2	1.5
CN(C)c1ccc(/C=N\NC(=O)c2csnn2)cc1	i
Cc1ccc(NC(=O)Nc2ncccc2C)cc1	0.3
CSc1nc(=O)n(-c2ccccc2)c(C)c1C(C)=O	0.1
O=C(NCc1cccs1)[C@@H]1CSC2c3ccccc3C(=O)N21 (stereo partly specified)	i
CC1CCCC(C)N1C(=O)c1cc(-c2ccc(Cl)c(Cl)c2)on1 (stereo unspecified)	6.4
COC(=O)C1=C(C)n2nnnc2NC1c1cc2ccccc2o1 (stereo unspecified)	i
Cn1c(=O)n(C)c2cc(S(=O)(=O)N3CCCc4ccccc43)ccc21	0.5
O=C(c1ccco1)N1CCN(C(=O)c2cc3c(=O)oc4ccccc4c3s2)CC1	0.4
O=C(OCN1C(=O)c2ccccc2C1=O)/C(=C\c1ccco1)NC(=O)c1ccccc1	i
O=C(Cc1ccc2c(c1)CCCC2)Nc1ccccc1Br	0.2
CC12CCC(C(=O)Nc3ccc(SC(F)F)cc3)(CC1=O)C2(C)C (stereo unspecified)	i
CCCCc1nc2ccccc2c(NC(=O)CN(CC)CC)c1CCC	0.6
COc1ccc(C(=O)OC2CCN(c3ncc(C(F)(F)F)cc3Cl)CC2)cc1	i
CC1Cc2ccccc2N1C(=O)CSc1nc(-c2ccco2)cc(C(F)(F)F)n1 (stereo unspecified)	i
C=CCN1C(=O)C(CC(=O)Nc2ccccc2)SC1=Nc1ccc(S(N)(=O)=O)cc1 (stereo unspecified)	i
CCCCOc1ccccc1N	i
COC(=O)c1oc2ccccc2c1N	0.0
O=C(CCCNS(=O)(=O)c1cccc2nsnc12)NCCc1ccccc1	0.4

Two compounds drawn at random from those above, as already listed:
SMILES	H5N1 antiviral
CCCCOc1ccccc1N	i
O=C(c1ccco1)N1CCN(C(=O)c2cc3c(=O)oc4ccccc4c3s2)CC1	0.4

Later entries:
SMILES	H5N1 antiviral
C=CCn1c(=O)/c(=C/c2ccc(O)cc2)s/c1=C(/C#N)c1nnc2n1CCCCC2	1.0
CCOC(=O)c1sc(N(Cc2ccccc2)C(=O)CSc2nnc(C3CC3)n2N)nc1C	0.3
CC(C)C(NC(=O)/C=C/c1ccc(F)cc1)C(C)C	3.2
CC(=O)Nc1ccc(S(=O)(=O)NCCc2ccc(F)cc2)cc1	i
Cn1cccc1/C=N/n1c(-c2ccccc2)n[nH]c1=S	0.0
COc1ccccc1N1CCN(S(=O)(=O)c2cn(C)c(=O)n(C)c2=O)CC1	i
CCN(CC)S(=O)(=O)c1ccc2nc(SC)sc2c1	i
COC(=O)CSc1nc2cc(C)ccc2cc1C#N	i
CC(NC(=O)COc1ccccc1)C(=O)NC1=NCCS1 (stereo unspecified)	1.4
CSc1ccc(CNc2ccc(Cl)cc2)cc1	i
Cc1ccc(-c2csc(NC(=O)C3CC=CCC3C(=O)O)c2C(=O)OC(C)C)cc1 (stereo unspecified)	i
CCOC(=O)c1sc2nc(N3CCOCC3)c3c(c2c1N)CCCC3	0.8

Bioassay records: PubChem, SRMLSC
